# Compound activity: PubChem, National Center for Advancing Translational Sciences (NCATS)
# Menin-MLL FL inh = menin-MLL binding inhibition, fluorescein peptide. Fluorescence polarization, fluorescein-MLL peptide displacement from menin. FP activity change, % at 61.4 µM. 290,000 tested, under 10 active. AID 1766; inconclusive = falling polarisation curve, or a change in total fluorescence; inactive = total fluorescence flat and polarisation flat or rising; no compound was filed as active; the % refers to the polarisation; negative = inhibition;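 note: % of control where 0% means no effect; inhibitors lower the polarisation; unlabelled MLL peptide was the positive control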
# ClpP mod = qHTS Assay for Activators of ClpP; AID 651965, 2013; Potency, µM (top dose mostly 57.5 µM), for inactives: at the top dose activity change, negative = active; 1.9% of 340,000 active; purified B. subtilis ClpP, FRET peptide cleavage, 20 min; active = well fitted falling curve with a large enough effect; inconclusive = small, poorly fitted or top-dose-only effect; inactive = no such curve, though single readings can be large or run the other way; note: potency is the fitted concentration of half-maximal effect; the source files actives as falling curves though it sought activators and does not explain the sign; nearly all actives have a fitted effect of over 65% in size; many hits overshoot -100%
# Target sequence (P80244 whole entry, looked up): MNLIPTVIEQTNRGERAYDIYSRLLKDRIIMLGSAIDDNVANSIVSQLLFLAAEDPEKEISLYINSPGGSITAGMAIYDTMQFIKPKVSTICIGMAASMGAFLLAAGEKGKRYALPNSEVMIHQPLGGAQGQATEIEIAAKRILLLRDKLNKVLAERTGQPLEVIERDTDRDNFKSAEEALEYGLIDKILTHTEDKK
#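 FRET quenching reversal measured ClpP activation: 10 microg/mL B. subtilis ClpP at pH 8 with the FRET-FV decapeptide, read at 430 nm after 320 nm excitation. The 20-min minus 0-min signal was scaled between DMSO/no-enzyme wells and ADEP (5.8 microM final).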
# TRPML1 agonist = human mucolipin-1 channel agonism; Q9GZU1; TRPML1-expressing cells, Ca2+ dye fluorescence, FDSS; host cell line not named in the record; reference of the full effect not given here; activation, % (test concentration not listed); 0.12% of 410,000 active; in the data active = activation above about 50%; inconclusive = about 30% to 50%; inactive = below about 30%; note: 0% is about no effect; the text of the record puts the active cut at 80%
# Target sequence (Q9GZU1 whole entry, looked up): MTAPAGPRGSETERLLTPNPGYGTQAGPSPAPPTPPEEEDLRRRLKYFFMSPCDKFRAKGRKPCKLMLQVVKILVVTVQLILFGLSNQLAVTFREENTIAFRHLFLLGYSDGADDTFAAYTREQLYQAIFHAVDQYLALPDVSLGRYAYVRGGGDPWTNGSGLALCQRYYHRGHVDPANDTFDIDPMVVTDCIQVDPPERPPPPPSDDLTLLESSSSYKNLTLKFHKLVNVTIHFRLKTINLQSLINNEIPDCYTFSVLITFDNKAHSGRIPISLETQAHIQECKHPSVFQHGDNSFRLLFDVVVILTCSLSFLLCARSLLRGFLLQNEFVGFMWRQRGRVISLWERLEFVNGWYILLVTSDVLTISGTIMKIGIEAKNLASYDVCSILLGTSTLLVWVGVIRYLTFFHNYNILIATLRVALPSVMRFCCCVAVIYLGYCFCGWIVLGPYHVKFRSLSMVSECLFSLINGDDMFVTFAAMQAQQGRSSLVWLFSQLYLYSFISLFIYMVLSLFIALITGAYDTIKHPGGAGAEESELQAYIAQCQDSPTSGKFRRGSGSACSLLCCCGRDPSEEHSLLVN
#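 Tet-induced TRPML1-DL cells, 1,500 per well, cultured overnight, were loaded with a no-wash Ca2+ dye for 45–90 min. Calcium fluorescence was recorded on the FDSS for 110 s after compound addition, before the EC80 agonist (4 uM 54-4) was added.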
# TRPML1 inh = human mucolipin-1 channel inhibition. Q9GZU1. TRPML1-inducible cells, Ca2+ dye fluorescence, FDSS; hits give low values; inhibition of EC80 agonist-evoked calcium signal. activity change, negative = inhibition, % (no concentration beside the values). 0.02% of 390,000 active. AID 624415; in the data active means activity change below about -50%; inconclusive means about -30% to -50%; inactive means above about -30%;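 note: stimulus is agonist 54-4 at its EC80 concentration; % is set by controls: 0 for no effect and ±100 for the full control effect; compound concentration not given in the record; the text of the record puts the active cut at -80%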
#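 Tet-induced TRPML1-DL cells loaded with Ca8 no-wash calcium dye were read kinetically on FDSS. Compound addition was followed by EC80 agonist 54-4 (4 uM final); inhibition was read over 110 s.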
# TRPV1 PAM = enhances activation of the human vanilloid receptor TRPV1. TRPV1-expressing cells, Fluo-8 calcium influx, capsaicin EC20 potentiation; host cell line not named in the record; control for the full effect not named in the record. potentiation, % at 8.33 µM. Q8NER1. 0.02% of 320,000 active; active means potentiation above 80%; inconclusive means 30% to 80%; inactive means below 30%; note: 0% is about no effect
#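 TRPV1-expressing cells were cultured overnight at 35.5C and loaded with Fluo-8 calcium dye for 40 to 90 min at room temperature. After a 10 s baseline, compound was added and calcium influx was read kinetically for 3 min (ex 480/em 520 nm).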
# Sfp inh = blocks B. subtilis Sfp PPTase activity. Potency, µM, without a hit: max response, negative = inhibition, usual class: inhibitors. 3.5% of 310,000 active. Q9F4F7. AID 1490. Biochemical Sfp PPTase activity, qHTS; active = well fitted inhibition curve with a large enough effect; inconclusive = small, poorly fitted or top-dose-only effect, or another doubt; inactive = no such curve, though single readings can be large or run the other way;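 note: the enzyme is Sfp with the accession as filed and its product quenches rhodamine fluorescence; potency is the fitted concentration of half-maximal effect; 0% = enzyme reaction without inhibitor and -100% = no enzyme wells; top concentration of the series not given in the record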
#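 With Hepes-Na pH 7.6 buffer containing 10 mM MgCl2, Sfp (15 nM) modified BHQ-2-YbbR (12.5 uM) using rhodamine-CoA (5 uM). Two reads 30 minutes apart at 525/598 nm yielded each well's rate.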
# PINK1 modulator = changes PINK1 expression; Potency, µM (top dose mostly 76.6 µM), inactives show at the highest dose activation (PINK1 increase), usual class: activators; PINK1 immunofluorescence, high-content cytometry, 24 h; 0.2% of 410,000 active; AID 624263; active = well fitted activation curve with a large enough effect; inconclusive = small, poorly fitted or top-dose-only effect; inactive = flat fitted curve, though single readings scatter; cell line not stated here;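 note: potency is the fitted concentration of half-maximal effect; % of control where 0% means no effect; nearly all actives have a fitted effect of over 65% in size; a mitochondrial uncoupler was the plate control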
#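 PINK1 protein, normally rapidly degraded, was detected by immunofluorescence after 24 hour compound treatment of a stable cell line. Titration data (5 concentrations) came from laser-scanning cytometry, with CCCP-treated wells as controls.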
# * hit, by the source's call; ? = inconclusive; · = no result given; [ ] = remark or other dose.
SMILES,Menin-MLL FL inh,ClpP mod,TRPML1 agonist,TRPML1 inh,TRPV1 PAM,Sfp inh,PINK1 modulator
COc1ccc(-c2c(-c3cc(OC)cc(OC)c3)n(C)c3ccc(-c4ccc(OC)cc4F)cc23)cc1,·,4.3%,0.5,17,-3,·,0.7%
Cc1ccc(N2CC(C(=O)Nc3nc4ccc(S(C)(=O)=O)cc4s3)CC2=O)cc1C (configuration not stated),-2.8,·,0.8,24,-4,-19%,-0.3%
O=C(NCc1nnc(SCC(=O)N2CCCC2)o1)c1ccccc1F,1.3,0.5%,1.6,7,11,17%,1.3%
COc1cc2c(cc1O)[C@@H]1Cc3cc(O)c(OC)cc3[C@H](C2)N1C,-1.8,1.3%,0.3,44,27,14%,0.4%
CCOc1ccc(-n2nc(C(=O)N3CCN(CC)CC3)c3ccccc3c2=O)cc1,-1.3,-0.4%,-0.2,-2,12,-10%,-2.8%[38.3 µM]
Nc1ccc2oc(-c3cccc4ccccc34)nc2c1,-3.0,15%,0.8,-20,-1,-5%,3.8%
CCN(CC)CCNC(=O)c1ccc(Cn2c(=O)c3cccn3c3cccnc32)cc1,·,-25%,-0.2,-1,·,·,0.0%
CCOC(=O)c1c(C)[nH]c(C(=O)COC(=O)CNC(=O)c2ccc(Cl)cc2Cl)c1C,1.3,2.7%,2.0,-3,3,-4%,0.4%
CCCCCn1c(CNC(=O)CC)nc2ccccc21,-5.2,-0.2%,0.0,-7,-20,10%,-1.2%
O=C1/C(=C/c2ccc(F)cc2)SC(=S)N1CCCC(=O)N1CCCCC1CCO (configuration not stated),·,1.8%,0.3,-1,3,-23%,-1.4%
Cc1ccc(C(=O)OCC(=O)Nc2ccccc2)cc1S(=O)(=O)N1CCCCC1,·,-1.1%,1.2,18,-20,·,-0.6%
O=C(COC(=O)CNS(=O)(=O)c1ccc(Br)cc1Cl)NC1CC1,·,1.3%,-0.8,1,-16,·,1.1%
O=C(NCCc1nnc2ccc(N3CCCCCC3)nn12)c1ccccc1,·,-1.7%,0.1,-3,-9,-1%,1.3%
CCN(CC)/C(Sc1ccccc1)=C(/C(Cl)=C(Cl)Cl)[N+](=O)[O-],-0.5,1.3%,2.8,-13,13,6%,0.1%
O=C(CNS(=O)(=O)c1cccs1)NCCc1ccc(Cl)cc1,0.8,·,-0.1,6,-4,4%,-0.5%
CCCCOC(=O)c1ccc(OC(=O)c2cccnc2)cc1,3.2,2.2%,0.5,22,-2,14%,1.5%
Clc1cccc(NCc2nnc(SCc3ccccc3)o2)c1,-1.0,0.0%,2.5,-11,9,-10%,-2.2%
Cc1cccc([C@@H]2[C@@H]3C(=O)N(Cc4ccccc4)C(=O)[C@@H]3[C@]3(Cc4ccccc4)C(=O)N(c4ccc(C(F)(F)F)cc4)C(=O)N23)c1,·,-9.2%,0.0,-2,1,·,-0.7%
COCC1CCN(C(=O)c2cc(COc3ccc(-n4cncn4)cc3)on2)CC1,-3.3,2.2%,0.5,11,-14,11%,0.6%
O=C(CCCc1ccccc1)NCc1ccc(Cl)cc1,-3.0,·,0.6,-8,16,2%,0.2%
OC(c1cccc(CN2CCCCC2)c1)c1ncc(-c2ccccc2Cl)[nH]1 (configuration not stated),·,-0.3%,-0.3,·,·,·,0.3%
O=C1c2ccccc2C(=O)N1c1cc([N+](=O)[O-])ccn1,-2.9,-1.0%,-0.3,8,16,6%,2.0%
FC(F)(F)c1ccccc1NC(=S)Nc1cccc(Cl)c1,-0.5,·,0.0,-8,13,15%,5.4%
COc1ccc(C(=O)Cn2c(=O)n3nc(CCn4nc(C)cc4C)nc3c3cc(OC)c(OC)cc32)cc1,·,-0.3%,0.4,-21,·,·,2.1%

# Random excerpt: two compounds from above.
SMILES,Menin-MLL FL inh,ClpP mod,TRPML1 agonist,TRPML1 inh,TRPV1 PAM,Sfp inh,PINK1 modulator
OC(c1cccc(CN2CCCCC2)c1)c1ncc(-c2ccccc2Cl)[nH]1 (configuration not stated),·,-0.3%,-0.3,·,·,·,0.3%
O=C(NCCc1nnc2ccc(N3CCCCCC3)nn12)c1ccccc1,·,-1.7%,0.1,-3,-9,-1%,1.3%

# (next part)
SMILES,Menin-MLL FL inh,ClpP mod,TRPML1 agonist,TRPML1 inh,TRPV1 PAM,Sfp inh,PINK1 modulator
CC(=O)N[C@@H](C)C(=O)OC(C)C(=O)Nc1cccc([N+](=O)[O-])c1 (some centres not stated),1.5,·,1.3,25,-1,7%,-0.7%
Clc1ccc(OCCCn2ccnc2)c(Br)c1,-1.3,-1.8%,1.9,2,-7,-19%,-0.7%
CCC(C)N1CCN(S(=O)(=O)Cc2ccccc2)CC1 (configuration not stated),-7.7,·,-0.3,19,9,1%,-1.7%
O=C(COC(=O)c1ccccc1F)NC(=O)NC1CCCC1,·,0.3%,1.6,-4,13,·,0.4%
O=[N+]([O-])c1ccc(CNC2CCCc3ccccc32)cc1 (configuration not stated),0.3,·,-1.0,64,-6,63µM*,0.4%
S=C1NCCOCCNC(=S)NCCOCCOCCN1,1.6,-0.3%,0.2,11,1,30%[activator],-0.2%
CCN(CC)S(=O)(=O)c1ccc(NC(=O)c2nc3nc(C)cc(C)n3n2)cc1,4.5,·,·,·,16,14%,·
CCN1CCN(c2ccc(S(=O)(=O)N3CCOCC3)cc2NC(=O)c2cccc([N+](=O)[O-])c2)CC1,·,·,-0.4,71,·,·,-1.6%
CCOc1cc(/C=N/NC(=O)c2nnn(-c3nonc3N)c2C)ccc1OCc1ccc(F)cc1,·,137%,0.4,-28,23,18%,4.3%
CCOC(=O)C1CCN(c2c(Nc3cc(C)cc(C)c3)c(=O)c2=O)CC1,5.4,·,0.9,-7,-2,-7%,13%
CCOC(=O)c1c(-c2ccccc2)nnn1-c1nc(OC)nc(N2CCOCC2)n1,1.4,0.9%,-0.3,2,0,10%,-0.4%
Cc1cc(SCC(=O)OC/C(O)=C(\C#N)c2nc3ccccc3[nH]2)c(C)cc1Br,?,1.5%,-0.3,4,-9,-18%,9.4%

# Structures listed so far shown as hits in Sfp inh:
structure,Menin-MLL FL inh,TRPML1 inh,Sfp inh
O=[N+]([O-])c1ccc(CNC2CCCc3ccccc32)cc1 (configuration not stated),0.3,64,63µM*

# Continuation.
SMILES,Menin-MLL FL inh,ClpP mod,TRPML1 agonist,TRPML1 inh,TRPV1 PAM,Sfp inh,PINK1 modulator
COc1ccc(C(=O)OCc2cc3cccc(C)c3[nH]c2=O)cc1,-1.9,-6.0%,1.9,-4,6,0%,21%
COc1ccc(Cl)cc1N(C)C(=O)C(=O)Nc1ccc2nc3n(c(=O)c2c1)CCCCC3,·,2.5%,3.4,25,·,·,3.9%
COCCNC(=O)CCCn1c(=O)c2ccccc2n(Cc2ccccc2C#N)c1=O,2.3,-15%,-0.2,10,-1,10%,-0.3%
CC(C(=O)Nc1ccccc1-c1ccccc1)N1CCN(C(=O)c2ccccc2)CC1 (configuration not stated),-4.6,·,-0.6,18,8,5%,0.9%
COc1cc(S(=O)(=O)N2CCOCC2)ccc1NC(=O)COC(=O)C12CC3CC(CC(C3)C1)C2,3.9,1.5%,16,-1,·,11%,4.4%
COC(=O)c1ccc2c(=O)n(CCCCCC(=O)N3CCN(c4cc(C)ccc4C)CC3)c(=O)[nH]c2c1,·,-0.3%,-0.6,8,·,·,1.4%
Cc1nc2sc(C(c3ccc(F)cc3)N3CCOCC3)c(O)n2n1 (configuration not stated),1.1,1.4%,0.1,-16,10,7%,3.0%
COc1ccccc1-c1ccc(/C=N/O)o1,-0.5,0.6%,-0.4,6,-3,-9%,-0.3%
COCCOC(=O)C1=C(C)NC(=O)NC1c1cccc2ccccc12 (configuration not stated),-3.2,0.1%,-1.3,-5,2,-5%,-1.7%
Cc1cccc(N2CCN(C(=O)C3CCCN(S(=O)(=O)c4cccc5nsnc45)C3)CC2)c1C (configuration not stated),·,-0.9%,-0.8,3,·,·,5.6%
Cc1cnc(CNc2ncnc3ccc(-c4ccc5c(c4)OCO5)cc23)cn1,-4.1,·,·,·,·,4%,-0.5%
O=C(NCC(c1cccs1)N1CCOCC1)c1ccc(Br)o1 (configuration not stated),0.6,0.4%,-0.2,-11,7,7%,1.6%
CC(C)(CNC(=O)CO/N=C1/C=C2CCC3C(C(O)C[C@@]4(C)C3CC[C@]4(O)C(=O)CO)[C@@]2(C)CC1)C(O)C(=O)O (some centres not stated),5.1,-1.7%,0.0,29,-15,5%,2.1%
COc1ccc(/C=C/C(=O)O)cc1S(=O)(=O)NC1CCS(=O)(=O)C1 (configuration not stated),3.2,·,-0.3,28,29,10%,1.3%
COCC(=O)N1CCC2(CC1)CN(C(=O)Nc1cccc(F)c1)C2,1.5,·,·,·,·,-2%,-0.9%
O=C1CCC2(CCCCC2)N1,·,·,0.4,-6,·,·,-1.9%
CC(C)NC(=O)c1ccccc1NC(=O)CS(=O)(=O)Cc1ccccc1,4.1,-1.9%,1.3,-16,1,5%,?
CCOC(=O)c1cnc(SC)nc1Sc1ccccc1Cl,4.5,1.5%,3.0,14,-10,-28%,18%
COc1cccc(C(=O)NCC(=O)NNc2ncnc(N)c2[N+](=O)[O-])c1,-2.3,·,0.3,-13,5,-51%,-1.5%
Cc1nc2sc(C(c3cccs3)N3CCN(Cc4ccccc4)CC3)c(O)n2n1 (configuration not stated),0.4,-3.2%,-0.1,-15,4,-6%,-0.3%
Cc1ccc2cc(CN(c3ccccc3)S(=O)(=O)c3ccccc3)c(=O)[nH]c2c1,4.1,·,1.1,44,4,-3%,1.8%
CCCCOc1ccc(N=Cc2ccc[nH]2)cc1,-1.1,0.0%,-0.5,-7,-3,8%,0.2%
Cc1ccc(CNC(=O)C(=O)NCC(c2cccnc2)N2CCN(c3ccccc3F)CC2)cc1 (configuration not stated),·,0.0%,2.0,-18,·,·,-0.1%
O=c1[nH]c(CSc2nnc(-c3ccccc3)n2-c2ccccc2)nc2ccccc12,3.7,0.1%,-0.3,-8,-6,-6%,-1.5%
COc1ccc(Cc2n[nH]c(=S)o2)cc1,-3.8,·,1.1,28,-17,-12%,0.2%
COCC(=O)N1CCC2(CCN(Cc3cc(C(F)(F)F)cc(C(F)(F)F)c3)CC2)CC1,-0.3,·,·,·,·,15%,-1.0%
Cc1ccc(C)c(NC(=O)C(Sc2nnc(-c3cccs3)o2)c2ccccc2)c1 (configuration not stated),1.7,-1.9%,-0.2,0,8,21%,3.1%
COc1ccccc1N1CCN(C(=O)c2cnc(N3CCCCC3)c3ccccc23)CC1,·,-24%,0.2,-2,·,·,0.6%
